Screening data deposited in PubChem by several laboratories.
RecA splice inh – blocks M. tuberculosis RecA intein splicing; inhibition, %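 (about 9 µM by stock and volumes)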; actives 0.75% (n = 290,000); cell-free RecA intein splicing, fluorescence; in the data active = inhibition above about 30%; inconclusive = no clear call, values can overlap the other calls;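 also: 0% = vehicle wells and 100% = reference inhibitor control wells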
Target sequence (P9WHJ3 whole entry, looked up, canonical isoform): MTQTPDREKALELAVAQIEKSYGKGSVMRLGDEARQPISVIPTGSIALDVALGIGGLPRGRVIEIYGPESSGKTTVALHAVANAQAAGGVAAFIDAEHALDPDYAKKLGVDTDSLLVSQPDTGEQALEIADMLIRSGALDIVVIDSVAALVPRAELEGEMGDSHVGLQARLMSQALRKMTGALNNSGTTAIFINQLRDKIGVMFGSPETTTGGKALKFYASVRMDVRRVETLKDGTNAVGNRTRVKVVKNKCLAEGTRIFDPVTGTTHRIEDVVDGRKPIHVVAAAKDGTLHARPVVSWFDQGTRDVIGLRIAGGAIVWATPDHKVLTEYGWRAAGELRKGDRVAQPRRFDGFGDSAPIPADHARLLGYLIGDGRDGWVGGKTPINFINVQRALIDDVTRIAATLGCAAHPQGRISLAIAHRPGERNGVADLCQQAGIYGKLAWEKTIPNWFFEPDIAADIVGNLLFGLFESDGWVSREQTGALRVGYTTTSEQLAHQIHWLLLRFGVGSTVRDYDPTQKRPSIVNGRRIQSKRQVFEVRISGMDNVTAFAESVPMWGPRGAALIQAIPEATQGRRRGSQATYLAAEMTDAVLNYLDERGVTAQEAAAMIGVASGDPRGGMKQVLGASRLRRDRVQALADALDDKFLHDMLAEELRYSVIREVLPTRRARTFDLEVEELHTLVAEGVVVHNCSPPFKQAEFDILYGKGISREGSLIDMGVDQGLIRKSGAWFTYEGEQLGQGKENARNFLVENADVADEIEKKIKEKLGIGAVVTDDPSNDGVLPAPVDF
Mtb bLac sens – beta-lactam sensitization of Mtb H37Rv | actives 0.27% (n = 330,000) | inhibition, % at 25 µM | AID 434955 | M. tuberculosis H37Rv growth with meropenem, percent inhibition; hits of this screen are not shown here;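 active = about 74% or more and at least 40 points above the plate without the antibiotic, then above 30% in a dose series; inconclusive = first-round hits that could not be retested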;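 also: growth measured after seven days incubation then overnight dye step; 0% = bacteria only wells and 100% = bacteria with antibiotic; twin plates without the antibiotic show which effects depend on it; some results filed as inactive read as strong as hits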
YopH PTP inh – inhibitors of Yersinia enterocolitica YopH tyrosine phosphatase; fluorescence Ex485/Em525; inhibition, %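 (about 10 µM by stock and volumes)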; actives 0.16% (n = 140,000); AID 898;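 active = inhibition of 50% or more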;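 also: controls were vehicle for no effect and minimum signal wells for full effect; inactives centre near -20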
Arbovirus anti – arbovirus infection inhibition. AID 1251. actives 0.37% (n = 200,000). inhibition, % at 10 µM. arbovirus infection cell-based antiviral screen;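 active = inhibition from about 30%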;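 also: bluetongue infection of BSR cells; cell survival read as ATP light after 72 h; 0% = infected wells without compound and 100% = uninfected wells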
Mtb growth – M. tuberculosis H37Rv growth inhibitors, H37Rv strain (AID 1626); M. tuberculosis H37Rv growth inhibition; higher % means a stronger effect; one-dose inhibition, % at 10 µM; IC50 in µM for titrated hits; actives 0.95% (n = 220,000);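 active = confirmed in a dose series; inconclusive = inhibition above 80% but not taken into the dose series; inactive = below 80% or under 30% at every dose of the series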;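 also: bacteria incubated seven days before Alamar blue readout; 0% = bacteria only wells and 100% = bacteria with antibiotic wells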
Arbovirus anti repeat – recorded beside Arbovirus anti, whose call it bears; inhibition, %; measured here: 10K subset replicate screen; many hits read low in the repeat;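 first of two repeat runs on a subset; 0% = infected and 100% = uninfected wells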
An asterisk follows results filed as active; ? = inconclusive; . = no result given. Not all compounds are listed; count on the stated rates, not on these rows.

The opening 17 compounds, ahead of the listing:
SMILES	RecA splice inh	Mtb bLac sens	YopH PTP inh	Arbovirus anti	Mtb growth	others
C=CC1C(OC2OC(CO)C(O)C(O)C2O)OC=C(C(=O)OC)C1CC1CC(=O)CC(CC(=O)CCc2ccc(O)cc2)O1 (configuration not stated)	-2.8	4	.	.	-8%
COC(=O)C1CCC(C)(C(=O)Nc2ccccc2)C1(C)C (configuration not stated)	-12	-5	-41	-6	-2%
CCOC(=O)C(Cc1ccccc1)NC(=O)Cn1nnc(-c2ccc(SC)cc2)n1 (configuration not stated)	1.8	96	-6	9	8%
CC(C)C[C@H](NC(=O)c1nc[nH]c1C(=O)NC1CCN(C(=O)OC(C)(C)C)CC1)C(=O)OC(C)(C)C	-0.6	3	.	-20	4%
COc1cccc(-c2nc(CS(=O)CC(=O)N3CCC4(CC3)OCCO4)c(C)o2)c1 (configuration not stated)	-0.4	0	-28	-2	.
Cn1nc(CC(=O)NCc2cccc3ccccc23)c2ccccc2c1=O	-5.5	-10	-8	-14	2%
CCOC(=O)c1ccc(NS(=O)(=O)c2ccc3c(c2)CCCN3C(C)=O)cc1	.	-15	-17	9	-6%
O=C(CC1(O)C(=O)N(Cc2ccccc2)c2ccccc21)c1ccc2c(c1)OCO2 (configuration not stated)	1.2	2	-16	-6	-2%
O=S(=O)(Nc1ccncc1)c1ccc(Cl)c(Cl)c1	-2.6	-4	.	.	.
COc1cccc(CNC(=O)CCc2nnc3ccc(NCCCN4CCCC4=O)nn23)c1	-1.7	1	.	.	.
COCCn1c(-c2cc(OC)c(OC)c(OC)c2)nc2oc3cc(OC)ccc3c(=O)c2c1=O	-1.8	-8	.	.	1%
CCCc1cc(=O)n2[nH]c(NCc3c(F)cccc3Cl)nc2n1	2.1	78	-22	-9	-5%
COc1ccc(NC(=O)Nc2cccc(C)n2)c(OC)c1	1.0	?	.	.	.
N#Cc1ccc(C(=O)Nc2cccc3ncccc23)c(F)c1	2.4	-8	-24	1	-8%
CCOC(=O)N1CCN(C(=O)C(C)SCc2ccccc2)CC1 (configuration not stated)	0.7	2	-28	5	-4%
c1ccc2c(Oc3ccc4c(c3)OCO4)nncc2c1	-1.6	2	-35	-14	-18%
CCC1(C)Cc2ccccc2C(=O)N1 (configuration not stated)	-1.7	-1	.	.	-11%

All compounds of this part, from the start:
SMILES	RecA splice inh	Mtb bLac sens	YopH PTP inh	Arbovirus anti	Mtb growth	others
C=CC1C(OC2OC(CO)C(O)C(O)C2O)OC=C(C(=O)OC)C1CC1CC(=O)CC(CC(=O)CCc2ccc(O)cc2)O1 (configuration not stated)	-2.8	4	.	.	-8%
COC(=O)C1CCC(C)(C(=O)Nc2ccccc2)C1(C)C (configuration not stated)	-12	-5	-41	-6	-2%
CCOC(=O)C(Cc1ccccc1)NC(=O)Cn1nnc(-c2ccc(SC)cc2)n1 (configuration not stated)	1.8	96	-6	9	8%
CC(C)C[C@H](NC(=O)c1nc[nH]c1C(=O)NC1CCN(C(=O)OC(C)(C)C)CC1)C(=O)OC(C)(C)C	-0.6	3	.	-20	4%
COc1cccc(-c2nc(CS(=O)CC(=O)N3CCC4(CC3)OCCO4)c(C)o2)c1 (configuration not stated)	-0.4	0	-28	-2	.
Cn1nc(CC(=O)NCc2cccc3ccccc23)c2ccccc2c1=O	-5.5	-10	-8	-14	2%
CCOC(=O)c1ccc(NS(=O)(=O)c2ccc3c(c2)CCCN3C(C)=O)cc1	.	-15	-17	9	-6%
O=C(CC1(O)C(=O)N(Cc2ccccc2)c2ccccc21)c1ccc2c(c1)OCO2 (configuration not stated)	1.2	2	-16	-6	-2%
O=S(=O)(Nc1ccncc1)c1ccc(Cl)c(Cl)c1	-2.6	-4	.	.	.
COc1cccc(CNC(=O)CCc2nnc3ccc(NCCCN4CCCC4=O)nn23)c1	-1.7	1	.	.	.
COCCn1c(-c2cc(OC)c(OC)c(OC)c2)nc2oc3cc(OC)ccc3c(=O)c2c1=O	-1.8	-8	.	.	1%
CCCc1cc(=O)n2[nH]c(NCc3c(F)cccc3Cl)nc2n1	2.1	78	-22	-9	-5%
COc1ccc(NC(=O)Nc2cccc(C)n2)c(OC)c1	1.0	?	.	.	.
N#Cc1ccc(C(=O)Nc2cccc3ncccc23)c(F)c1	2.4	-8	-24	1	-8%
CCOC(=O)N1CCN(C(=O)C(C)SCc2ccccc2)CC1 (configuration not stated)	0.7	2	-28	5	-4%
c1ccc2c(Oc3ccc4c(c3)OCO4)nncc2c1	-1.6	2	-35	-14	-18%
CCC1(C)Cc2ccccc2C(=O)N1 (configuration not stated)	-1.7	-1	.	.	-11%
COc1ccccc1CCNCc1ccc(OC)c(OC)c1OC	-1.4	-2	.	5	-9%
C=CCn1c(NCc2ccccc2O)nc2ccccc21	-2.1	-2	.	.	.
C/C(=N\Nc1ccc([N+](=O)[O-])cc1[N+](=O)[O-])c1ccc(-n2nncc2C(C)(C)C)cc1	-2.3	2	-16	2	2%
O=C(Nc1ncccc1O)c1ccc2c(c1)OCO2	-1.5	-5	.	.	.
CN(c1ccc(OCc2ccc([N+](=O)[O-])cc2)cc1)S(=O)(=O)c1ccccc1	-17	9	.	.	.
Cc1ccc(Cn2c(C)c3cnn(CC(=O)NCc4ccccn4)c(=O)c3c2C)cc1	0.5	-10	.	.	.
CS(=O)c1ccccc1COC(=O)Nc1ccccc1 (configuration not stated)	5.2	-8	.	-3	-6%
Cc1nn(C)cc1CNC(=O)CCC(=O)O	-1.3	-6	-61	-2	-6%
COc1ccc2c(c1)CC/C(=C/c1ccncc1)C2=O	24	53	-29	5	1%
C=CCNC(=O)Cn1nnc(-c2ccc(-c3ccc(OC)cc3)cc2)n1	-5.6	12	.	.	.
Cc1ccc(CNC(=O)C2CCN(C(=O)Nc3ccccc3)CC2)cc1	0.7	-2	.	.	.
COC(=O)C1CCN(c2ccc([N+](=O)[O-])cc2)CC1	-0.6	1	.	7	0%
COC(=O)c1ccc(-c2ncc(-c3cccc4ccccc34)o2)cc1	-0.2	97	-29	-15	-11%
CCOc1c(Cl)cc(C(=O)Nc2ccccc2-c2ccccc2)cc1Cl	12	-6	-20	4	.
Cc1cc2ccccn2c1C(=O)c1nc(NCc2ccco2)ncc1Cl	2.0	6	.	10	9%
O=C(Nc1nccs1)c1ccc(S(=O)(=O)NCc2cccs2)cc1	-0.1	8	-39	-26	6%
CCCOc1ccc(N2C(=O)CC(SCCN)C2=O)cc1 (configuration not stated)	0.4	-4	-23	13	-8%
CCOc1ccc(/C=N/n2c(C)nc3ccccc3c2=O)cc1	-0.8	4	.	.	.
CCOc1ccc(-n2cc(-c3ccc(OC)c(OC)c3)[nH]c2=S)cc1	0.4	?	.	0	16%

Sorted by length of the SMILES (high to low): 3 of the compounds above
SMILES	RecA splice inh	Mtb bLac sens	YopH PTP inh	Arbovirus anti	Mtb growth	others
CCOc1ccc(-n2cc(-c3ccc(OC)c(OC)c3)[nH]c2=S)cc1	0.4	?	.	0	16%
Cc1ccc(CNC(=O)C2CCN(C(=O)Nc3ccccc3)CC2)cc1	0.7	-2	.	.	.
CCOc1ccc(/C=N/n2c(C)nc3ccccc3c2=O)cc1	-0.8	4	.	.	.

Other records follow.
SMILES	RecA splice inh	Mtb bLac sens	YopH PTP inh	Arbovirus anti	Mtb growth	others
Cc1cccc(Nc2nc3c(c(=O)n(C)c(=O)n3C)n2CC(O)CO)c1 (configuration not stated)	-0.9	-8	-9	6	6%
N#Cc1nc(-c2cccc(Cl)c2)oc1N1CCC(C(N)=O)CC1	-2.2	1	.	.	.
O=[N+]([O-])c1ccc(Sc2nnnn2-c2ccccc2)nc1	58*	.	.	-21	8.3µM*
O=C(Nc1ccccc1)NC1CCCCNC1=O (configuration not stated)	0.5	1	.	.	-15%
O=C(NCCCNC(=O)c1cc(Cl)ccc1Cl)c1ccccn1	0.4	-2	.	.	.
CS(=O)(=O)c1ccc(-c2nnc(NC(=O)c3cccc(N4C(=O)CCC4=O)c3)o2)cc1	-0.6	1	.	.	.
Cc1oc2cc3c(C(=O)N4CCCCC4)c(C)oc3cc2c1C(=O)N1CCCCC1	1.3	-5	-43	-2	0%
O=C1C=CC(=O)N1N(c1ccccc1)c1ccccc1	6.4	3	-27	-14	4%
O=C(CCc1nnc(-c2ccsc2)o1)N1CCc2c(Cl)cccc2C1	0.3	3	.	1	1%
Cc1ccc(C)c(Nc2c([N+](=O)[O-])c(=O)oc3ccccc23)c1	.	-1	.	.	12%
CC(=O)c1ccc(NC(=O)c2ccc3c(c2)C(=O)N(c2ccccn2)C3=O)cc1	-0.3	-5	.	.	.
CCN(CC)C(=O)CN1CCN(c2ccccc2F)CC1	-2.8	-6	-46	0	4%
COc1ccc(N(C(=O)c2snc(C(N)=O)c2N)C(C(=O)NC2CCCC2)c2cc(OC)ccc2OC)c(OC)c1 (configuration not stated)	-2.2	0	.	.	.
Cn1c2ccccc2c(=O)c2c(=O)n(Cc3ccccc3)c(-c3ccc(F)cc3)nc21	-0.7	2	.	.	-1%
COc1ccc(S(=O)(=O)Nc2cc(C)on2)cc1OC	0.2	-1	-2	-2	-5%
O=C(CSc1ccc(-c2ccco2)nn1)NC1CCCC1	6.2	-12	.	15	.
CCOC(=O)COc1cc([N+](=O)[O-])cc2cccnc12	-2.3	98	.	-4	3%
CCOCCCN(C(=O)Nc1ccc(CC)cc1)C1CCN(C(C)=O)CC1	0.3	3	-2	-3	0%
Cc1oc(-c2ccccc2Cl)nc1CS(=O)CC(=O)NCc1ccco1 (configuration not stated)	-3.7	3	.	.	.
CC(C)OC(=O)c1cccnc1N1CCN(c2ccc(F)cc2)CC1	4.4	-5	-7	5	-2%
O=C1N[C@H](Cc2ccccc2)C(=O)N[C@H]1Cc1cn(S(=O)(=O)c2ccccc2)c2ccccc12	2.3	10	.	.	-7%
CCCCn1c(C(C)NC(=O)CC)nc2ccccc21 (configuration not stated)	-0.3	0	-31	0	-2%	Arbovirus anti repeat=0
COc1ccccc1NC(=O)C1CCCN(C(=O)Nc2ccc(F)cc2)C1 (configuration not stated)	1.0	9	.	.	.
Nc1ccccc1SSc1ccccc1N	0.8	0	.	.	3%
NC(=O)c1ccccc1Br	-5.3	-4	.	.	-6%
O=C(Nc1ccc(N2CCN(C(=O)c3ccccc3F)CC2)cc1)c1cncc(Br)c1	0.4	57	.	.	.
CCOC(=O)Nc1cccc(OCC(=O)Nc2ccc(OC)cc2OC)c1	1.4	-2	-12	5	0%
O=S(=O)(c1ccccc1)N1CCN(c2nnnn2-c2ccccc2)CC1	4.6	0	-23	7	-9%
CSCC[C@H](NC(=O)C1CCN(C(=O)[C@H](Cc2ccccc2)NS(=O)(=O)c2ccc(C)cc2)CC1)C(=O)O	-1.8	?	.	.	.
COC(=O)c1cc(S(=O)(=O)N2CCN(c3ccccc3)CC2)c[nH]1	-3.7	-3	.	.	.
Cc1cc(C)cc(N(CCC(=O)Nc2nnc(C)s2)S(=O)(=O)c2ccc(Cl)cc2)c1	2.0	6	-18	-8	9%
Cc1ccccc1OCCn1cnc2c(N)ncnc21	-4.4	-1	-24	-27	-3%
COc1ccc(C2=NOC(Cn3nc(C(=O)NCc4ccc5c(c4)OCO5)cc3-c3ccccc3)C2)cc1 (configuration not stated)	-4.6	3	.	.	.
CC(=O)c1cccc(-n2nnnc2SCC(=O)Nc2ccccc2N2CCCCC2)c1	5.8	2	1	-30	11%
CN(C)c1ccc(CNc2ccccn2)cc1	-1.8	-1	.	.	.
CC(C(=O)N1CCc2ccccc2C1)N(c1ccccc1)S(C)(=O)=O (configuration not stated)	3.6	-8	.	.	.
Cc1ccc(S(=O)(=O)C2(C(=O)NCCc3ccccc3)CC2)cc1	1.0	1	.	.	.
CC(=O)c1c(C)[nH]c(C(=O)Nc2ccc(Cl)cc2)c1C	-0.5	-4	.	.	.
CC(C)c1ccc(CN2C(=O)c3ccccc3S2(=O)=O)cc1	-1.8	-4	.	.	.
Cc1nn(Cc2ccc(F)cc2)c(C)c1NC(=O)C1c2ccccc2Oc2ccccc21	3.8	2	-13	-11	35%
